Mtb growth = Confirmatory growth inhibition assay against Mycobacterium tuberculosis H37Rv, potency (AID 1949); most inactive calls were filed without a number and no value below 0 was filed; inhibition, % at 10 µg/mL, or IC50 in µg/mL where a hit was titrated; 100,000 tested, 1.6% active;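 active = confirmed in a dose series; inconclusive = about 50% or more but not retested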;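 also: bacteria grown 7 days with compound before Alamar blue readout; 0% = untreated bacteria and 100% = reference antibiotic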
* = called active by the depositor; i = inactive; ? = inconclusive. An excerpt; count on the stated rates, not on these rows.

SMILES | Mtb growth
COc1cccc(NC(=O)c2ccccc2-c2ccccc2)c1 | i
COc1cc(CNc2ccc(O)cc2)cc(Br)c1OCc1ccccc1F | 1%
CCc1ccc(NC(=O)CSc2nnc(NC(=O)c3ccc(Cl)cc3)s2)cc1 | 3%
CN1C(=O)C(CC(=O)Nc2ccc(I)cc2)N(Cc2ccccc2)C1=S (stereo unspecified) | 22%
Cc1cc(C)nc(NC(=O)c2ccc(C)o2)c1 | i
COc1ccc(N(C(C)C(=O)Nc2cccc(C)c2)S(C)(=O)=O)cc1 (stereo unspecified) | 1%
COc1ccc(CCNC(=O)C2CCN(S(=O)(=O)c3c(C)cc(C)cc3C)CC2)cc1 | i
COC(=O)c1sccc1NC(=O)Nc1cccc(Cl)c1Cl | i
COc1ccc2nc(Nc3ncc4c(n3)CC(C)(C)CC4=O)nc(C)c2c1 | i
CC(C)(C)C(=O)NC1(C(F)(F)F)N=C(c2ccccc2)NC1=O (stereo unspecified) | i
CCOCCCNC(=O)C(=O)Nc1cccc(C)c1C | 4%
CC(C)N(Cc1nc(-c2ccccc2)no1)C(=O)C(C)(C)C | i
CCn1c(COc2ccc(C(C)C)cc2)nnc1SCC(=O)Nc1cccc(Cl)c1 | i
COc1nc2c(C)cccc2cc1-c1noc(COc2ccccc2)n1 | i
Cc1ccc(-c2nc3ccccc3c(=O)n2-c2cccc(C)n2)cc1 | i
O=C(NC(c1ccccc1)c1ccc(Cl)cc1)c1cc(F)c(F)cc1Cl (stereo unspecified) | 6%
CC1CN(S(=O)(=O)c2c(Cl)cccc2Cl)CC(C)O1 (stereo unspecified) | i
Cc1ccc(-c2ccc(OCC(=O)OCc3ccccc3)cc2)cc1 | 0.23µg/mL*
Cc1c(Cl)cccc1NC(=O)CSCC(=O)c1ccc(Br)cc1 | i
CCC(C)NC(=O)CN(Cc1ccc(F)cc1)S(=O)(=O)c1ccc(Cl)cc1 (stereo unspecified) | i
CCOC(=O)C12C(=O)Oc3ccc(Br)cc3C1C2(CC)C(=O)c1ccccc1 (stereo unspecified) | i
CCC(=O)c1ccc(OCC(O)Cn2nc(C)c(Br)c2C)cc1 (stereo unspecified) | 26%
Cc1cc(C)n2c(SCc3c(C)noc3C)nnc2n1 | i
FC(F)(F)c1cccc(N2CCN(C(=S)NCc3ccco3)CC2)c1 | 0%
COc1ccc(C(=O)Nc2ccc(C(=O)NCc3ccccc3)cc2)cc1 | 0%
CCOC(=O)c1cc(CC)sc1NC(=O)c1cccc(OC)c1 | 16%
O=C(COc1ccc2c(-c3ccccc3)cc(=O)oc2c1)c1ccc(N2CCCC2)cc1 | i
O=[N+]([O-])c1cc(S(=O)(=O)C(F)(F)F)ccc1Oc1ccccc1 | i
CCC(C(=O)NNC(=O)Nc1cc(C)ccc1OC)c1ccccc1 (stereo unspecified) | 4%
CC(c1nc2ccccc2o1)N1C(=O)c2ccccc2C1=O (stereo unspecified) | i
Cc1ccc(S(=O)(=O)NC(Cc2c[nH]c3ccccc23)C(=O)O)cc1 (stereo unspecified) | i
Cc1cc(S(=O)(=O)N2CCN(c3cc(Cl)ccc3C)CC2)ccc1F | 7%
COc1ccc(C)cc1NC(=O)C(Cc1ccccc1)N1C(=O)c2ccccc2C1=O (stereo unspecified) | i
S=C(NCc1ccco1)N1CCC2(CC1)OCCO2 | i
COc1ccc(N2CC(C(=O)Nc3nc4ccccc4s3)CC2=O)cc1 (stereo unspecified) | i
CCOC(=O)CC(=O)CSc1nc2nc(C)cc(C)n2n1 | i
CCOC(=O)c1c(-c2cccs2)csc1NC(=O)C#Cc1ccccc1 | 31%
CCOc1ccccc1NC(=O)C1CCN(C(=O)c2ccccc2)CC1 | i
Cc1cc(C)c(NC(=O)C(=O)NCc2cccnc2)c(C)c1 | i
O=C(Nc1ccccc1-c1nc2ccccc2s1)c1ccccc1F | i
N#CC1=C(S)NC(c2ccccc2)=CC1c1ccco1 (stereo unspecified) | i
O=C(NCCSCc1c(F)cccc1Cl)c1ccc(Cl)cc1 | i
O=c1[nH]c(CS(=O)(=O)c2ccccc2)nc2ccccc12 | i
Cc1ccc(S(=O)(=O)Nc2nc3ccc(C)cc3s2)cc1 | i
COCCNC(=S)Nc1ccc(Cl)c(Cl)c1 | i
O=C(Cc1cccc(Cl)c1)Nc1ccc(Cl)cc1 | 2%
CCOc1ccc(NC(=O)CNS(=O)(=O)c2ccc(OC)c(OC)c2)cc1 | i
Cc1c(Cc2ccccc2)c(=O)oc2cc(OC(=O)c3ccco3)c(Cl)cc12 | i
CCOc1ccc(NC(=O)CSc2nnc(Cc3ccc(OC)cc3)n2CC)cc1 | i
CCOc1cc(C(=O)N(Cc2nc(-c3ccccc3)no2)C(C)C)cc(OCC)c1OCC | i
O=C(COc1ccc2oc3c(c2c1)CCCC3)Nc1cccnc1 | ?
O=C(Nc1ccc2oc(-c3ccc(Br)cc3)nc2c1)c1ccccc1 | i
COc1cccc(S(=O)(=O)N2CCN(C(c3ccccc3)c3ccccc3)CC2)c1 | 6%
COc1cccc(N(CC(=O)Nc2ccccc2C(N)=O)S(C)(=O)=O)c1 | i
Cc1c(Cl)cccc1NC(=O)CN(Cc1ccc(F)cc1)S(=O)(=O)c1ccccc1 | 1%
O=C1NC(Nc2ccccn2)(C(F)(F)F)C(=O)N1c1ccc(F)cc1 (stereo unspecified) | i
O=C(O)CCC(=O)Nc1ccc(Oc2ccc(Cl)cc2Cl)cc1 | i
CCCCOc1ccc(C(=O)Nc2ccc3c(c2)OCCO3)cc1 | i
O=C(NCCCN1CCCC1=O)c1cc(-c2cccnc2)nc2ccc(Cl)cc12 | i
C=CCc1cc(/C=C/[N+](=O)[O-])cc(OCC)c1O | 5.7µg/mL*

Following part.
SMILES | Mtb growth
COc1cccc(NS(=O)(=O)c2cccc(F)c2)c1 | 1%
O=[N+]([O-])c1ccc(-c2cn3cccnc3n2)cc1 | i
COc1cccc(N2C(=O)CN=C2Nc2nc(C)cc(C)n2)c1 | i
Cc1cc(Cl)c(S(=O)(=O)N2CCC(C(=O)O)CC2)cc1OCC(N)=O | i
COC(=O)c1ccc(NC(=O)CSCc2ccc(Cl)c(Cl)c2)cc1 | 47%
COc1cccc(Oc2ccc(N)cn2)c1 | i
CCCN(CCC)S(=O)(=O)c1ccc(NC(=O)c2ccc(OC)c(OC)c2)cc1 | i
Cc1cccc(OCCCC(=O)N2CCCCC2)c1C | i
CCc1c(C)sc(NC(=O)Cc2ccc(OC)cc2)c1C(=O)OC(C)C | 27%
COC(=O)Cc1csc(Nc2c(C)n(C)n(-c3ccccc3)c2=O)n1 | 1%
CCOC(=O)C(O)(c1ccc2nc(N)sc2c1)C(F)(F)F (stereo unspecified) | i
COc1cccc(C(=O)N2CCCC(C)C2)c1 (stereo unspecified) | i
CCC(CC)C(=O)N1CCc2ccccc21 | 1%
O=C(Nc1ccccc1C(=O)N1CCOCC1)C1COc2ccccc2O1 (stereo unspecified) | 9%
CC(c1ccccc1)N1C(=O)C2C3c4ccccc4C([N+](=O)[O-])(c4ccccc43)C2C1=O (stereo unspecified) | 9%
CCC(C(=O)OCc1ccccc1)n1cnc2sc3c(c2c1=O)CCC(C)C3 (stereo unspecified) | i
COc1cccc2cc(-c3csc(NC(=O)CCC(=O)N4CCCC4)n3)c(=O)oc12 | 2%
COC(=O)C(NC(=O)C12CC3CC(CC(C3)C1)C2)C(C)C (stereo unspecified) | 5%
Cc1ccc(C(=O)N(C)c2ccccc2)cc1Cl | i
CCOC(=O)c1ccc(NC(=O)Nc2cc(C)on2)cc1 | 3%
Cc1ccc(SCc2[nH]nc3c2C(Cc2ccccc2)C(C#N)=C(N)O3)cc1 (stereo unspecified) | i
CC(C)(C)c1cc(NC(=O)c2cccnc2)no1 | i
O=C(CSCc1c(Cl)cccc1Cl)Nc1ccc2c(c1)OCO2 | i
CC(=O)Oc1ccc(-c2csc(Nc3cccnc3)n2)cc1 | i
O=c1[nH]c(/C=C/c2cccs2)c([N+](=O)[O-])c(=O)[nH]1 | i
Cc1cc(C)c(NC(=O)c2ccncc2)c(Cl)c1 | ?
CC(=O)Nc1ccc(S(=O)(=O)Nc2ccc([N+](=O)[O-])cn2)cc1 | i
CC(Oc1ccc(C(C)(C)C)cc1)C(=O)Nc1ccc2c(c1)OCCO2 (stereo unspecified) | 13%
COc1ccc(OS(=O)(=O)c2ccc(Cl)c(Cl)c2)cc1 | i
C=CCNC(=O)c1ccc(Cl)cc1Cl | i
Nc1nc(CSCCO)nc(Nc2ccc(F)cc2)n1 | 6%
CC(C)NC(=O)NC1(C)CCS(=O)(=O)C1 (stereo unspecified) | i
CSc1nc(N2CCOCC2)c2c3c(sc2n1)CCC3 | i
CC(CCc1ccccc1)NC(=O)C(=O)NCCO (stereo unspecified) | i
O=C(CC1Sc2ccc(C(F)(F)F)cc2NC1=O)Nc1ccc(Cl)cc1Cl (stereo unspecified) | i
CCOc1ccc(NS(=O)(=O)c2ccc(NS(=O)(=O)c3ccccc3)cc2)cc1 | i
COc1c(Cl)cc(C(=O)NC(=S)Nc2ccc(N3CCCCC3)cc2)cc1Cl | 27%
COCc1nnc(SCC(=O)NC(C)c2ccccc2)n1-c1ccccc1 (stereo unspecified) | i
Cn1c(=O)c2c(-c3ccccc3)n3ncccc3c2n(C)c1=O | i
O=S(=O)(c1ccc2ccccc2c1)N1CCN(CCOc2ccccc2Cl)CC1 | 12%
Cc1ccc(N2CC(C(=O)Nc3nnc(C)s3)CC2=O)cc1 (stereo unspecified) | 0%
S=C(Nc1ccccc1-c1ccccc1)NC1CCCCC1 | i
CCCc1cc(C(=O)OC)c(NC(=O)CCCC(=O)O)s1 | i
CCOC(=O)C1CCN(C(=O)NC23CC4CC(CC(C4)C2)C3)CC1 | i
COc1ccc(C2CC(=O)C3=C(C2)Nc2ccccc2N(C(C)=O)C3c2cccc([N+](=O)[O-])c2)cc1 (stereo unspecified) | 46%
CCOC(=O)c1cnn(-c2ccc(Cl)c(Cl)c2)c1N | i
CCOC(=O)C1=C(C)NC2=C(C(=O)CCC2)C1c1ccc2c(c1)OCCO2 (stereo unspecified) | i
CCOc1cc(C(=O)Nc2ccc(-c3nc4ccccc4o3)c(O)c2)cc(OCC)c1OCC | 0%
O=C(Nc1ccc2c(c1)Cc1ccccc1-2)c1sc2ccccc2c1Cl | 3%
CC(C)(C)c1ccc(C23OC(=O)C4(CCCC4)C2OC(=O)C32CCCC2)cc1 (stereo unspecified) | i
CS(=O)(=O)N(Cc1ccccc1)c1ccccc1C(=O)Nc1ccc(F)c(Cl)c1 | i
CCSc1ncc(Cl)c(C(=O)Oc2ccccc2Br)n1 | 1%
O=C1c2ccccc2C(=O)N1Cc1ccc(Br)cc1 | 3%
Cc1ccc(N2C(=O)CC(NNC(=O)c3ccncc3)C2=O)cc1 (stereo unspecified) | ?
N#CCc1ccc(NC(=O)c2ccc3c(c2)OCO3)cc1 | i
Cc1ccc(O)c(Sc2cc(C)ccc2O)c1 | i
O=C(Nc1ccc2c(c1)OCCO2)Nc1ccc(Cl)cc1Cl | i
Cc1nc(SCC(=O)N2CCCC2)c2c3c(sc2n1)CCC3 | i
O=C(Nc1ccncc1)c1cc(F)c(F)cc1Cl | 1%
COc1ccccc1NC(=O)c1cc(S(=O)(=O)N2CCCC2)c(Cl)cc1Cl | 0%

Next part:
SMILES | Mtb growth
O=C(CN1C(=O)c2ccccc2C1=O)Nc1sc2c(c1C(=O)NCC1CCCO1)CCCC2 (stereo unspecified) | i
CN(C)CCNc1ccc(-c2n[nH]c(=O)c3ccccc23)cc1[N+](=O)[O-] | i
CSc1ccc(CN2CCC(N3CCN(c4ccccc4)CC3)CC2)cc1 | i
COc1ccc(CCn2cnc3oc(-c4ccccc4)c(-c4ccccc4)c3c2=N)cc1OC | i
O=C(CN1C(=O)c2ccccc2C1=O)Nc1sc2c(c1C(=O)NCC1CCCO1)CCC2 (stereo unspecified) | 2%
O=C(Nc1cccc2c1CCCC2)c1cccs1 | i
N/C(=N\OC(=O)c1ccc(-c2ccccc2)cc1)c1cccnc1 | i
CCNC(=O)C(=O)Nc1cc(Cl)ccc1C | i
O=C(Nc1cccc([N+](=O)[O-])c1)C1CCN(C(=O)c2ccccc2Cl)CC1 | i
Cc1cc(Br)cc(C)c1OCC(=O)Nc1ccc(S(=O)(=O)N2CCCCC2)cc1 | 20%
CCn1c(SCC(=O)Nc2ccc(C)cc2)nnc1-c1cccnc1 | 2%
